Compound activity as filed in PubChem BioAssay.
Mito fusion act: blocks mitochondrial division or promotes mitochondrial fusion; S. cerevisiae fusion-defective mutant growth rescue, CellTiterGlo 48 h; Potency, µM (titrated, usually from 46.1 µM), for inactives: top-dose growth rescue (activation), hits mostly activators; 0.23% of 320,000 active;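 further: potency means the concentration at half of the fitted maximal effect; % of control where 0% means no effect; nearly all actives have a fitted effect of over 45% in size; temperature-sensitive fusion mutants such as fzo1-1 at 37 °C on non-fermentable ethanol glycerol medium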
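Read-out: ATP-based luminescence (CellTiterGlo, 10 min ambient) reporting growth of fusion-defective ts yeast after 48 hours at 37C on glycerol/ethanol YPEG medium in the presence of compound.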
TCR act: T cell receptor activation | Potency, µM (titrated, usually from 9.22 µM), for inactives: at the top dose activation of IL-2 secretion, most hits filed as activators | 330,000 tested, under 10 active | primary human leukocytes, anti-CD3, IL-2 HTRF, 48 h; further: % of control where 0% means no effect
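Using a-CD3 beads without co-stimulation, primary human leukocytes were exposed to compounds for 48 hr. An HTRF IL-2 kit measured the cytokine, with europium-to-d2 energy transfer producing emission at 665nm upon 320nm excitation.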
Tb PFK inh: inhibitors of T. brucei phosphofructokinase | 0.17% of 330,000 active | T. brucei PFK, ADP-Glo luminescence | Potency, µM (highest dose often 57.5 µM), for the others: at the top dose activity, negative = inhibition, hits mostly inhibitors | O15648;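 further: potency means the concentration at half of the fitted maximal effect; 0% = uninhibited 1x PFK enzyme wells and -100% = no-enzyme wells; nearly all actives have a fitted effect of over 60% in size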
Target sequence (O15648 whole entry, looked up): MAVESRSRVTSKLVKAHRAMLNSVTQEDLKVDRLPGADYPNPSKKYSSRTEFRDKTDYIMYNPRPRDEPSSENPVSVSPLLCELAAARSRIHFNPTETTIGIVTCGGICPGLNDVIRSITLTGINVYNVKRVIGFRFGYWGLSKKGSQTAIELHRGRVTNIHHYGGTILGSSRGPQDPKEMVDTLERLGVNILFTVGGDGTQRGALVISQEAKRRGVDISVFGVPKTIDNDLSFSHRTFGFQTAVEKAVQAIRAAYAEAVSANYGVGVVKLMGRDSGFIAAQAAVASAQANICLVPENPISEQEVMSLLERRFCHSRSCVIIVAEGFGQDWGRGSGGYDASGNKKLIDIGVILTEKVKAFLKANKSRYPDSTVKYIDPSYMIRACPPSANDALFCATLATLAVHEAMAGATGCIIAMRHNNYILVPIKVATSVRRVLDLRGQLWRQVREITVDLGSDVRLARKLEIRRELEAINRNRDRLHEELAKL
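PFK 1.25 nM, F6P 0.5 mM, ATP 0.1 mM, 0.1 M TEA pH 8.0, 5 mM MgCl2, 0.01% Tween20, 0.1% BSA; 45 min RT. ADP-Glo readout. qHTS titration up to 57 uM; curves fitted, compounds curve-classed.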
Eya2 phos inh: inhibitors of human Eya2 phosphatase activity; O00167; AID 488837; recombinant Eya2, OMFP fluorescence dephosphorylation (OMFP is methylfluorescein phosphate); 0.006% of 330,000 active; Potency, µM (titrated, usually from 76.9 µM), without a hit: at the top dose activity, negative = inhibition, actives largely listed as inhibitors; further: potency means the concentration at half of the fitted maximal effect; on the % scale 0 is the no-effect control and ±100 the full control effect
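Eya2 (0.2 uM) preincubated 10 min at ambient with compound, then OMFP substrate added at 50 uM; 10 min reaction in 50 mM HEPES pH 7.5, 50 mM NaCl, 5 uM MgCl2, 0.05% BSA, 1 mM DTT. Fluorescence read at Ex 485/Em 525 nm.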
PTAP TSG101 blk: blocks PTAP/TSG101 interaction to inhibit HIV-1 budding; Q99816; Fluorescence polarization, FITC-PTAP peptide / Tsg101 binding; Potency, µM (series often up to 115 µM), inactives show top-dose activity change, negative = inhibition, actives largely listed as inhibitors; 340,000 tested, under 10 active; active means well fitted inhibition curve with a large enough effect in the main read-out, with a control signal flat, not every such curve was filed as active; inconclusive means small, poorly fitted or top-dose-only effect, or effect the other way, or a change in a side signal; inactive means no such curve, though single readings can be large or run the other way; further: potency means the concentration at half of the fitted maximal effect; % of control where 0% means no effect
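Fluorescence anisotropy tracks displacement of a FITC-tagged PTAP peptide (50 nM) from the Tsg101 binding domain (10 uM), following a 20 min room-temperature incubation at pH 7.5.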
USP2a block: USP2a (human) protease inhibition | USP2 core, Ub-CHOP2 coupled fluorogenic reporter, 485/531 | Potency, µM (doses to about 38.3 µM), inactives show at the top dose activity change, negative = inhibition, most hits filed as inhibitors | 0.01% of 330,000 active;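 further: potency means the concentration at half of the fitted maximal effect; plate controls were DMSO wells for no effect and full inhibition by NEM control for full effect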
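Cell-free coupled assay: 10nM USP2 core preincubated 30min RT with compound in Tris-HCl pH 8.0/CaCl2/CHAPS buffer, then 25nM Ub-CHOP2 and 25nM reporter substrate; fluorescence (Ex 485/Em 531) read after 60min RT, normalized to NEM inhibition, concentration-response curves fitted.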
Active calls of the source: *; u = inconclusive; x = not tested or not shown; & = joins results of further samples; [ ] = another dose, or the depositor's remark. Unless noted, the call rests on the fitted dose curve; in most records, active means well fitted curve in the direction sought with a large enough effect; inconclusive means small, poorly fitted or top-dose-only effect, or another doubt; inactive means no such curve, though single readings can be large; an effect the other way counts as inactive or inconclusive.

1	Cc1[nH]n(-c2ccccc2)c(=O)c1C(=O)c1ccccc1
2	Nc1ncnc2c1ncn2C1OC(CO)C(O)C1O (stereo not given)
3	OCCOCCN1CCN(C2=Nc3ccccc3Sc3ccccc32)CC1
4	CC(C)NC[C@@H](O)COc1cccc2ccccc12
5	CC[n+]1c(/C=C/N(C)c2ccccc2)oc2ccccc21
assay / entry	1	2	3	4	5
Tb PFK inh	0%	2%	1%&-3%	-5%	-4%
USP2a block	1%	0%	-1%&1%	-1%	3%
Mito fusion act	5%	-13%	-2%&-9%	-4%	0%
Eya2 phos inh	-8%	-16%	21%&3%	5%	-13%
PTAP TSG101 blk	-4%	-3%	-7%&-2%	-1%	4%
TCR act	0%	-1%	13%&10%	-6%	1%[46.1 µM]

6	CC1=NN(c2ccccc2)C(=O)C1C(=O)c1ccccc1 (stereo not given)
7	Cc1ccc(S(=O)(=O)n2c(C)nc3ccccc32)cc1
8	Cc1ccc(C2=NCN(c3ccc(C(=O)O)cc3)C(=S)N2)cc1
9	Nc1nc(Cl)c(N)c(NCC2(CO)CC(CCc3ccccc3)C2)n1 (stereo not given)
10	CN/C(=C\[N+](=O)[O-])NCCSCc1ccc(CN(C)C)o1
assay / entry	6	7	8	9	10
Tb PFK inh	5%	-6%	8%	x	-1%
USP2a block	-1%	2%	1%	x	0%
Mito fusion act	10%	-4%	-5%	x	u
Eya2 phos inh	4%	-5%	10%	x	-4%&-4%
PTAP TSG101 blk	-5%	-12%	x	-1%	-5%
TCR act	9%[46.1 µM]	-3%	x	2%	5%

11	Nc1ccc(-c2nc3ccc(N)cc3[nH]2)cc1
12	CC[n+]1c(/C=C/N(C)c2ccccc2)oc2ccc(Cl)cc21
13	CC(C)NC[C@H](O)COc1cccc2ccccc12
14	CN(C)CCCN1c2ccccc2Sc2ccc(C(F)(F)F)cc21
15	Cc1ccc(C)c2[nH]c(=O)c(CN(CC3CCCO3)C(=S)NCc3ccco3)cc12 (stereo not given)
assay / entry	11	12	13	14	15
Tb PFK inh	-2%	0%	x	-3%	2%
USP2a block	10%	4%	x	-7%	-4%
Mito fusion act	2%	-5%	-22%	-89%&-20%[inhibitor]	13%
Eya2 phos inh	-1%	15%	2%	-1%&-6%	9%
PTAP TSG101 blk	0%	-5%	-9%	-1%	-2%
TCR act	4%	0%[46.1 µM]	-1%	0%	3%

16	Cc1ccc(/C(=C\CN2CCCC2)c2ccccn2)cc1
17	CCN(CC)CC(=O)Nc1c(C)cccc1C
18	COc1cccc(C(=O)Nc2cc3c(cc2N2CCOCC2)n(C)c(=O)n3C)c1
19	FC(F)(F)c1nc2ccccc2[nH]1
20	Cc1ccc(CSc2nc(N)cc(=O)[nH]2)cc1
21	CN1CCN(C(=O)c2ccc(NS(=O)(=O)c3ccccc3)cc2)CC1
22	Cc1ccccc1C(=O)Nc1ccccc1
assay / entry	16	17	18	19	20	21	22
Tb PFK inh	1%	1%&0%&0%	10%	u	0%	0%	1%
USP2a block	7%	4%&5%&2%	1%	6%	0%	0%	-1%
Mito fusion act	-63%&7%[inhibitor]	-26%&0%&-5%&-3%	x	-3%	5%	x	0%
Eya2 phos inh	2%&16%	3%&-8%&-22%&-29%	1%	9%	-11%	-8%	-10%
PTAP TSG101 blk	-1%	-1%&3%&0%	2%	-5%	-2%	-10%	0%
TCR act	1%	1%&0%&-1%	-3%	-1%	4%	-4%	2%

Just Eya2 phos inh and TCR act, for some of the entries so far:
entry | SMILES | Eya2 phos inh | TCR act
21 | CN1CCN(C(=O)c2ccc(NS(=O)(=O)c3ccccc3)cc2)CC1 | -8% | -4%
16 | Cc1ccc(/C(=C\CN2CCCC2)c2ccccn2)cc1 | 2%&16% | 1%

Structural class: the compounds so far containing sulfur
3	OCCOCCN1CCN(C2=Nc3ccccc3Sc3ccccc32)CC1
7	Cc1ccc(S(=O)(=O)n2c(C)nc3ccccc32)cc1
8	Cc1ccc(C2=NCN(c3ccc(C(=O)O)cc3)C(=S)N2)cc1
10	CN/C(=C\[N+](=O)[O-])NCCSCc1ccc(CN(C)C)o1
14	CN(C)CCCN1c2ccccc2Sc2ccc(C(F)(F)F)cc21
15	Cc1ccc(C)c2[nH]c(=O)c(CN(CC3CCCO3)C(=S)NCc3ccco3)cc12 (stereo not given)
20	Cc1ccc(CSc2nc(N)cc(=O)[nH]2)cc1
assay / entry	3	7	8	10	14	15	20
Tb PFK inh	1%&-3%	-6%	8%	-1%	-3%	2%	0%
USP2a block	-1%&1%	2%	1%	0%	-7%	-4%	0%
Mito fusion act	-2%&-9%	-4%	-5%	u	-89%&-20%[inhibitor]	13%	5%
Eya2 phos inh	21%&3%	-5%	10%	-4%&-4%	-1%&-6%	9%	-11%
PTAP TSG101 blk	-7%&-2%	-12%	x	-5%	-1%	-2%	-2%
TCR act	13%&10%	-3%	x	5%	0%	3%	4%

21	CN1CCN(C(=O)c2ccc(NS(=O)(=O)c3ccccc3)cc2)CC1
assay / entry	21
Tb PFK inh	0%
USP2a block	0%
Mito fusion act	x
Eya2 phos inh	-8%
PTAP TSG101 blk	-10%
TCR act	-4%

This is a subset (hit frequency here may not be typical).
